# Bioassay records (PubChem BioAssay)
# VDR inhibitor: Inhibitors of the vitamin D receptor (VDR): qHTS; Vitamin D3 receptor (Homo sapiens), P11473; VDR-SRC2-3 peptide fluorescence polarization, 2 h; Potency, µM, without a hit: max response, negative = inhibition, actives largely listed as inhibitors; 400,000 tested, 0.93% active; active means well fitted inhibition curve with a large enough effect; inconclusive means small, poorly fitted or top-dose-only effect, or another doubt; inactive means no such curve, though single readings can be large or run the other way; further: series mostly up to about 120 µM
# Target sequence (P11473 whole entry, looked up): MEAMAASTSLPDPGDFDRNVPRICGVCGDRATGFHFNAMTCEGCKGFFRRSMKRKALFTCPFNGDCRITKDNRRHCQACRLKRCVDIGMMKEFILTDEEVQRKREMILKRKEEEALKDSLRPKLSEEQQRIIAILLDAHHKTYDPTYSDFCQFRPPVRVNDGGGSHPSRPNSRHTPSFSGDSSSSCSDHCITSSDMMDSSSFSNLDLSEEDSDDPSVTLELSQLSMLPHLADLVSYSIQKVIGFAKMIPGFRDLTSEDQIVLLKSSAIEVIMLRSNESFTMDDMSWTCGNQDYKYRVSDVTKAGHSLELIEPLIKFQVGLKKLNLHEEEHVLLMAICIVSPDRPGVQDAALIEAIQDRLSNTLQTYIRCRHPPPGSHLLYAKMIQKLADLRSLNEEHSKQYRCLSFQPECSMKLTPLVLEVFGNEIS
#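 Measured by FP: displacement of SRC2-3 coactivator peptide from VDR by library compounds, following a two-hour ambient incubation.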
# Starred values were filed as active, the others as inactive; ? = inconclusive; & = joins results of further samples; [ ] = dose if it differs, or a comment. On the % scale 0 is the no-effect control and ±100 the full control effect; potency means the concentration at half of the fitted maximal effect. An excerpt (hit frequency here may not be typical).
canonical_smiles	VDR inhibitor
O=C(CSCc1ccc([N+](=O)[O-])cc1)N/N=C/c1cccnc1	8.3%
COc1cc(S(=O)(=O)N2CCCCCC2)ccc1-n1cnnn1	-4.2%
CCCCn1c(N)c(N(CC(C)C)C(=O)c2cc(C)oc2C)c(=O)[nH]c1=O	9.4%
O=C1CCCC2=C1C(c1ccc(Cl)cc1)N=C(Nc1nc3ccccc3o1)N2 (stereo not drawn)	-2.6%
CN(Cc1ccccc1)C(=O)c1cccnc1	5.0%
COc1cc2sc3cc(NCc4ccc5c(c4)OCO5)ccc3c(=O)c2cc1OC	-5.8%
CC(C)c1ccc(-c2c(NCCc3ccccc3)c(=O)c2=O)cc1	20.9%
COc1ccc(-c2cnc(N)nc2-c2ccc(OC)cc2)cc1	2.6%
COc1cc(OC)c(OC)cc1/C=C/c1ccnc2ccccc12	-10.8%
Cc1c(NC(=O)C(=O)/C=C(\O)c2ccc(Br)cc2)c(=O)n(-c2ccccc2)n1C	2.1%
CC1CCCC(C)N1S(=O)(=O)c1ccc(S(=O)(=O)NCCc2ccncc2)cc1 (stereo not drawn)	-1.2%
COC(=O)c1ccc(Nc2nnc(-c3ccc(C)c(S(=O)(=O)NCC4CCCO4)c3)c3ccccc23)cc1 (stereo not drawn)	5.2%
Cc1cc(C)n2nc(CNS(=O)(=O)c3ccc([N+](=O)[O-])cc3)nc2n1	4.3%
CCc1c(C)nc2ncnn2c1NCCc1ccc(Cl)cc1	-10.6%
Cc1ccc(NC(=O)Cn2nnc3ccccc3c2=O)cc1	-2.9%
C#Cc1ccc([C@@H]2C=C(C(=O)N3CCN(Cc4ccc5c(c4)OCO5)CC3)O[C@H](OCCCCO)C2)cc1	-26.6%
COc1ccc(CC(NC(C)=O)C(=O)N2CCN(C(=O)Nc3cccc(F)c3)CC2)cc1OC (stereo not drawn)	4.8%
O=C(OCCN1C(=O)c2ccccc2C1=O)c1cccs1	0.5%
CCC/C=N/NC(=O)c1[nH]c2c([N+](=O)[O-])cccc2c1C	4.7%
Oc1ccc(N=Nc2c(O)ccc3ccccc23)cc1	-8.6%

# The final 2 compounds of the part before lead into the next.
canonical_smiles	VDR inhibitor
CCC/C=N/NC(=O)c1[nH]c2c([N+](=O)[O-])cccc2c1C	4.7%
Oc1ccc(N=Nc2c(O)ccc3ccccc23)cc1	-8.6%
CCOc1ccc(N2CC(NC(=O)C3CCCCC3)CC2=O)cc1 (stereo not drawn)	10.1%
CCC(=O)N1CCc2cc(S(=O)(=O)NCCC(=O)N3CCN(c4cccc(OC)c4)CC3)ccc21	9.5%
CCSc1nnc(Cn2c(=O)sc3ccccc32)n1-c1ccccc1C	-4.3%
CCCN(CCC)CCCNC(=O)c1cc2c(=O)[nH]c3ccccc3c2n1C	?
Cc1cc2ccccc2nc1SCC(=O)N1c2ccccc2CC1C (stereo not drawn)	21.2%
Nc1nc2ccccc2nc1N1CCCC1	-12.0%
CN1CCN(c2ccc(NC(=O)CN3CCOCC3)cc2F)CC1	8.6%
CCC(C(=O)OC)n1cnc2c(nnn2-c2ccccc2)c1=O (stereo not drawn)	-0.2%
O=C(COc1ccccc1Cl)N1N=C(c2cccs2)CC1c1ccco1 (stereo not drawn)	?
CCc1ccc(-c2n[nH]c(=O)c3ccccc23)cc1	18.8%
CCCCNC(=O)Cn1c(SCc2cccc(C)c2)nc2ccncc21	-23.6%
CCCCn1c(SCC2CCCO2)nc2cc(S(N)(=O)=O)ccc21 (stereo not drawn)	4.5%
CCOC(=O)c1c(NC(=O)c2cc(=O)c3c(C)cc(C)cc3o2)sc(C)c1C	3.2%
COc1ccc(CCNC(=O)CCN2C(=O)C3CC=CCC3C2=O)cc1OC (stereo not drawn)	9.4%
CC(CC(=O)Nc1ccncc1)c1ccccc1 (stereo not drawn)	-5.0%
CCCNc1nc2c(c(=O)n(C)c(=O)n2C)n1Cc1cccc(C)c1	10.2%
Cc1cc(NC(=O)COC(=O)CCNS(=O)(=O)c2ccccc2)n(-c2ccccc2)n1	11.2%
CCOC(=O)c1c(C)[nH]c(C(=O)OCC(=O)NCCc2ccc(OCC)c(OCC)c2)c1C	6.8%
CCCCN(C(=O)CN1CC(C)OC(C)C1)c1c(N)n(CC(C)C)c(=O)[nH]c1=O (stereo not drawn)	-17.4%
COC(=O)c1ccc(C2/C(=C(\O)c3cccc(OC)c3)C(=O)C(=O)N2CCCN(C)C)cc1 (stereo not drawn)	14.9%
COc1cccc(CC2(CO)CCCN(Cc3ccc(CO)o3)C2)c1 (stereo not drawn)	4.1%
Cc1ccc2[nH]c(=O)c3cc(C(=O)NC4CCC(C)CC4)sc3c2c1 (stereo not drawn)	-26.0%
Cc1ccccc1CN1C(=O)CSc2ccc(C(=O)N3CCOCC3)cc21	9.9%
CC(C)Oc1ccc(C(=O)NCCCNC(=O)c2ccccn2)cc1	-25.4%
COc1ccc(/C=C/C(=O)NC(=S)Nc2cc([N+](=O)[O-])ccc2O)cc1OC	?
COc1ccc(S(=O)(=O)N2CCOCC2)cc1NC(=O)CSc1nnc(C2CC2)n1C	15.8%
O=C(CC1OC(=O)c2ccccc21)Nc1ccccc1N1CCOCC1 (stereo not drawn)	-4.4%
CCOc1ccc(C2C(C(=O)Nc3ccc(OC)cc3)=C(C)Nc3nc(CCCO)nn32)cc1 (stereo not drawn)	11.0%
Cc1ccc(C(=O)OC(C)C(=O)NC2CCCCC2C)cc1S(=O)(=O)N1CCCCC1 (stereo not drawn)	6.4%
CCC(=O)Nc1ccc2ccccc2c1	-0.4%
O=c1c2cc(N3CCOCC3)ccc2[nH]c(=S)n1CCCN1CCCCCC1	-2.2%
O=c1c(-c2cccs2)nc2cnc(Oc3cccc(Cl)c3)nc2n1C1CC1	?
CCC(=O)n1nc(-c2ccccc2)nc1SCC(=O)Nc1ccc(C)cc1	-12.4%
COc1ccc2c(C)cc(N3CCCCCC3)nc2c1	-4.2%
Cc1ccc(CNC(=O)c2ccc(N3CCC4(CC3)CC(c3ccccc3)=NO4)c(NC(=O)c3ccc(Br)cc3)c2)cc1	-12.3%
CC(=O)Nc1ccc(NC(=O)CCCc2ccccc2)cc1	-23.7%
COc1ccc(Cl)cc1NC(=O)CN(c1cccc(C)c1C)S(=O)(=O)c1ccccc1	-12.9%
O=C1CN(C(=O)CSc2nnc(-c3ccccc3)n2Cc2ccc3c(c2)OCO3)c2ccccc2N1	-0.1%
O=C(NC1CCSC1=O)c1ccccc1 (stereo not drawn)	30.2%[activator]
Cc1nc(NC(=O)COC(=O)/C=C/c2ccco2)c(Cl)cc1Cl	?
O=C(CN1CCOc2ccccc21)NC1CCN(Cc2ccccc2)CC1	-2.8%
Cc1nc2ccccc2nc(C)c1=NO	0.4%
CC(N)(C(=O)O)c1cccc(OCc2cccc(Cl)c2)c1 (stereo not drawn)	-5.8%
CCCS(=O)(=O)N1CCCC(C(=O)NCCN(CC)c2ccccc2)C1 (stereo not drawn)	5.9%
C=CCSc1nnc(NC(=O)COc2ccccc2)s1	1.0%
CCOc1ccccc1NC(=O)NNC(=O)c1ccc2ccccc2c1	-13.3%
COc1ccc(C(=O)COC(=O)Cn2[nH]c(=O)c3ccccc3c2=O)c(OC)c1	5.8%
Cc1cc(C)n(C(=O)c2ccc(NC(=O)C3CC3)cc2)n1	-7.3%
Cc1ccc(C)c2nc(Cl)c(C#N)cc12	-4.4%
CCc1nnc(NC(=O)C2CCCN2S(=O)(=O)c2ccccc2)s1 (stereo not drawn)	-8.0%
COC(=O)c1cn(NC(=O)Cc2ccc(Cl)cc2)c(=O)c2ccccc12	10.8%
CS(=O)(=O)c1ncc(Cl)c(C(=O)Nc2ccc(OC(F)F)cc2)n1	10µM*
COc1ccc(/C=N/Nc2ncc(Br)cn2)c(OC)c1	-26.1%
CCn1cc(CNC(=O)c2ccc(Cl)c([N+](=O)[O-])c2)c(C)n1	-4.9%
Cc1cc(NC(=O)COC(=O)c2cccc(S(=O)(=O)N(C)C3CCCCC3)c2)no1	5.5%
COc1ccc(C(=O)NC(=S)Nc2ccccc2N2CCN(S(C)(=O)=O)CC2)cc1OC	-6.4%
CC(=O)c1ccc(N(C(=O)CNC(=O)c2ccco2)C(C(=O)NCC2CCCO2)c2ccccc2)cc1 (stereo not drawn)	-5.7%
CCc1ccc(-n2c(=S)sc3c(=O)n(-c4ccccc4OC)c(=S)[nH]c32)cc1	?
CC[C@H](C)[C@H](NC(=O)c1ccccc1)C(=O)Nc1ccc(S(=O)(=O)Nc2cc(C)nc(C)n2)cc1	-3.6%
FC(F)Sc1ccc(Nc2ncnc3nc[nH]c23)cc1	6.7%

# Continuation:
canonical_smiles	VDR inhibitor
O=C(CCNS(=O)(=O)c1cccc(C(F)(F)F)c1)NCc1ccco1	-11.2%
C/C(=N/NC(=O)c1cc(-c2ccc(Br)s2)[nH]n1)c1ccco1	-20.2%
O=C(c1ccc(CNS(=O)(=O)c2ccccc2)cc1)N1CCN(Cc2ccccc2)CC1	10.5%
O=C(c1c[nH]c(=O)n(-c2ccccc2)c1=O)N1CCc2ccccc21	-13.6%
Cc1ccc(N(C)C(=O)c2sc3nc4n(c(=O)c3c2C)CCCC4)cc1C	16.5%
Nc1ccc(S(=O)(=O)Nc2nccs2)cc1	-18.6%&-1.7%&6.9%
Cc1ccc(S(=O)(=O)N2CCOCC2)cc1NC(=O)c1cc2c(s1)CCC2	-3.6%
CN(c1ccccc1)S(=O)(=O)c1ccc(C(=O)NCc2cccs2)cc1	7.9%
Cc1ccc(S(=O)(=O)N2CCN(C(=O)Cn3c(=O)cnc4ccccc43)CC2)cc1	3.1%
C[C@@H](NC(=O)c1[nH]cnc1C(=O)Nc1ccccc1)c1ccccc1	-0.9%
CCn1c(N2CCN(S(=O)(=O)c3ccccc3C(F)(F)F)CC2)nc2ccccc21	-0.9%
CCOc1ccc(CCNS(=O)(=O)c2ccc3c(c2)NC(=O)CO3)cc1OCC	-20.2%
Cc1ccc(NC(=O)CSc2ncnc3ccccc23)cc1S(=O)(=O)N1CCOCC1	3.5%
COc1ccc(/C=C/c2onc(C)c2S(=O)(=O)N2CCC(C(=O)N3CCCCC3)CC2)cc1	9.5%
COc1ccc(C(CNC(=O)c2cc3ccccc3o2)N2CCCC2)cc1 (stereo not drawn)	-10.1%
CCOC(=O)N1CCN(c2ccc(S(=O)(=O)N3CCOCC3)cc2[N+](=O)[O-])CC1	-1.0%
COc1cc(N(C)C)c([N+](=O)[O-])cc1C(=O)N1CCOCC1	8.6%
CN(CCc1ccccn1)C(=O)CCC1CCCN(C(=O)c2c(F)ccc(F)c2F)C1 (stereo not drawn)	-5.0%
CCN(CC)CCNS(=O)(=O)c1ccc(OC)c(Br)c1	-17.5%
O=C(CCn1c(=O)c2ccccc2n(CC(=O)N2CCN(c3ccccc3)CC2)c1=O)NCc1ccco1	-20.2%
Cc1ccccc1C(=O)Nc1c(C)[nH]c(=O)[nH]c1=O	6.5%
COc1ccc(NC(=O)CN(C)C(=O)CCc2ccccc2)cc1	14.8%
Cc1ccccc1NC(=O)c1csc2c1CCCC2	-7.1%
Cc1cc(C(=O)Nc2c(C)n(C)n(-c3ccccc3)c2=O)cs1	15.2%
CNC(=O)c1ccc(NC(=O)CCc2c(C)noc2C)cc1	-0.9%
Cc1ccc(/C=C2\SC(=S)N(c3cccnc3)C2=O)o1	-3.0%
COc1ccc(NC(=O)CSc2ncnc3c2cnn3CCc2ccccc2)cc1	7.5%
O=S(=O)(NCCc1cn2ccccc2n1)c1ccc2c(c1)OCCO2	-7.5%
COc1ccc(CCNC(=O)c2ccc(CSc3ccccc3)o2)cc1	-7.9%
CC(=O)N1C(Nc2ccc(Cl)cc2)CCN1c1ccccc1 (stereo not drawn)	-7.3%
COc1ccc(N2CCN(CC(O)COc3ccc(C)cc3C)CC2)cc1 (stereo not drawn)	-2.7%&-19.9%
CCC(C)(C)C1CCc2nc3ccccc3c(C(=O)OC(C)C(=O)Nc3c(C)n(C)n(-c4ccccc4)c3=O)c2C1 (stereo not drawn)	-19.2%
COc1ccc(C(=O)c2cn(-c3cccc(Br)c3)nc2C(C)=O)cc1	6.0%
O=C1S/C(=C/c2ccc(N3CCOCC3)o2)C(=O)N1Cc1c(F)cccc1Cl	79.4µM*
O=C(Nc1cc(S(=O)(=O)Nc2ccccc2Cl)ccc1O)c1sc2cc(Cl)ccc2c1Cl	9.4%
CC(CC(=O)N1CCc2ccccc21)c1ccccc1 (stereo not drawn)	2.2%
O=C(c1cccs1)N(Cc1cc2ccccc2[nH]c1=O)CC1CCCO1 (stereo not drawn)	-7.9%
CCC(=O)Nc1cccc2cccnc12	2.5%
CCOc1ccccc1C1C2CCCCC2(O)CCN1C(=O)c1cccs1 (stereo not drawn)	2.6%
Oc1ccc(Br)cc1C1C=C(c2ccc3c(c2)OCO3)NC(c2ccc(Cl)cc2)N1 (stereo not drawn)	?
COc1ccc(S(=O)(=O)N/N=c2\oc3c(OC)cccc3cc2S(=O)(=O)c2ccc(C)cc2)cc1OC	1.7%
O=C(Cc1ccc(Br)cc1)N1CCN(c2ccccc2)CC1	-1.2%
COCCn1c(C(=O)N2CCCC2)cc2c1C[C@H]1CN(C(=O)c3ccccc3)[C@@](Cc3ccc(F)cc3)(C(=O)OC)[C@@H]21	-3.4%

# Part of the list above in a different format:
VDR inhibitor,mol
-19.2%,CCC(C)(C)C1CCc2nc3ccccc3c(C(=O)OC(C)C(=O)Nc3c(C)n(C)n(-c4ccccc4)c3=O)c2C1 (stereo not drawn)
-3.0%,Cc1ccc(/C=C2\SC(=S)N(c3cccnc3)C2=O)o1
